# Screens as filed in PubChem.
# HIV Env fusion – inhibitors of HIV Env-mediated cell fusion | HeLa-JRFL Env/CEM21 cell fusion, luciferase | inhibition, % at 12.3 µM | hit rate 1.1% among 360,000;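 active = mean replicate inhibition score of at least 50 and every replicate individually at or above 50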;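 note: 0% = plate neutral controls and 100% = maraviroc near 300 nM; one replicate is shown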
# UUG fidelity – alters start codon recognition fidelity in yeast | S. cerevisiae UUG-firefly luciferase reporter, luminescence/redox ratio | activity score, % at 18.7 µM | hit rate 0.13% among 350,000 | AID 602363;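 active = replicate mean at a twofold rise or more, about +100% in these data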;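 note: firefly luciferase made from a UUG start codon reports start codon fidelity; reporter light over untreated wells divided by growth signal over untreated wells; some hits fall short of that in this replicate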
# Active calls of the source: *; [ ] = another dose, or the depositor's remark. This is a subset; rates above refer to the full screens.
# Every second line gives: HIV Env fusion, UUG fidelity
- CO[C@@H]1CN(C)C(=O)c2ccc(NC(=O)Nc3ccccc3F)cc2OC[C@@H](C)N(S(=O)(=O)CC(F)(F)F)C[C@H]1C
  12[16.7 µM], 8
- C[C@H](CO)N1C[C@H](C)[C@@H](CN(C)C(=O)c2cccnc2)Oc2cc(/C=C/c3ccccc3)ccc2S1(=O)=O
  -17[16.7 µM], 1
- CNC[C@@H]1OCCCC[C@H](C)Oc2ccc(NC(=O)NC3CCCCC3)cc2C(=O)N([C@@H](C)CO)C[C@@H]1C
  8[16.7 µM], 30
- COc1ccccc1NC(=O)N(C)C[C@@H]1Oc2ncc(Br)cc2C(=O)N([C@H](C)CO)C[C@H]1C
  -25[16.7 µM], 7
- C[C@@H]1CCCCO[C@H](CN(C)Cc2ccc(C(=O)O)cc2)[C@H](C)CN([C@H](C)CO)C(=O)c2cc(NS(=O)(=O)c3cn(C)cn3)ccc2O1
  -12[16.7 µM], 7
- CNC[C@H]1Oc2cc(C#CC3CCCC3)ccc2S(=O)(=O)N([C@H](C)CO)C[C@H]1C
  -21[16.7 µM], 8
- C[C@H](O)C#Cc1ccc2c(c1)O[C@H](CN(C)Cc1ccncc1)[C@@H](C)CN([C@H](C)CO)S2(=O)=O
  6[16.7 µM], -6
- C[C@@H]1CN([C@H](C)CO)C(=O)c2cc(NS(C)(=O)=O)ccc2O[C@@H]1CN(C)Cc1ccncc1
  -17[16.7 µM], -16
- COc1ccccc1-c1ccc2c(c1)O[C@H](CN(C)C(=O)Nc1cccc(F)c1)[C@@H](C)CN([C@H](C)CO)S2(=O)=O
  -4[16.7 µM], -11
- CCCNC(=O)C[C@@H]1CC[C@@H]2[C@@H](COc3ccc(NC(=O)c4cccc(C(F)(F)F)c4)cc3C(=O)N2C)O1
  -6[16.7 µM], 18
- COCC#Cc1ccc2c(c1)O[C@H](CN(C)Cc1cccnc1)[C@@H](C)CN([C@H](C)CO)S2(=O)=O
  8[16.7 µM], -14
- CO[C@@H]1CN(C)C(=O)c2cc(NC(C)=O)ccc2OC[C@@H](C)N(C(=O)C2CC2)C[C@@H]1C
  -18[16.7 µM], -4
- C[C@H]1CN([C@@H](C)CO)C(=O)c2cccc(NC(=O)Nc3ccc4c(c3)OCO4)c2O[C@@H]1CN(C)CC1CCCCC1
  20[16.7 µM], -10
- C[C@H](CO)N1C[C@H](C)[C@H](CN(C)S(C)(=O)=O)Oc2c(NC(=O)C3CCCCC3)cccc2C1=O
  4[16.7 µM], 2
- C[C@@H]1CN([C@H](C)CO)C(=O)Cc2cc(NC(=O)Cc3ccccc3)ccc2O[C@@H]1CN(C)Cc1ccc(C(=O)O)cc1
  -4[16.7 µM], 5
- C[C@@H]1CN([C@H](C)CO)C(=O)c2cc(NS(=O)(=O)c3cn(C)cn3)ccc2O[C@@H]1CN(C)C(=O)Nc1ccc(C(F)(F)F)cc1
  -10[16.7 µM], 2
- C[C@@H]1CCCCO[C@@H](CN(C)C(=O)CCC(F)(F)F)[C@@H](C)CN([C@@H](C)CO)C(=O)c2cc(NC(=O)Nc3ccc4c(c3)OCO4)ccc2O1
  -26[16.7 µM], -1
- C[C@@H]1CN([C@H](C)CO)C(=O)Cc2cc(NC(=O)CCCCCC(=O)Nc3ccccc3N)ccc2O[C@@H]1CN(C)C(=O)Nc1ccc2c(c1)OCO2
  11[16.7 µM], 19
- Cc1noc(C)c1S(=O)(=O)Nc1ccc2c(c1)C(=O)N([C@H](C)CO)C[C@@H](C)[C@@H](CN(C)C(=O)Nc1ccc(C(F)(F)F)cc1)O2
  3[16.7 µM], -10
- CO[C@H]1CN(C)C(=O)c2cc(NS(=O)(=O)c3ccccc3)ccc2OC[C@@H](C)N(C)C[C@H]1C
  3[16.7 µM], -6
- COc1ccc(NC(=O)Nc2ccc3c(c2)C(=O)N([C@@H](C)CO)C[C@@H](C)[C@H](CN(C)C(=O)Nc2ccccc2)OCCCC[C@H](C)O3)cc1
  -3[16.7 µM], -3
- C[C@@H]1CN([C@H](C)CO)C(=O)c2cc(-c3cncnc3)cnc2O[C@H]1CN(C)C(=O)c1ccccc1F
  -11[16.7 µM], 7
- O=C(C[C@H]1C[C@H]2c3cc(NC(=O)NC4CCCC4)ccc3O[C@H]2[C@@H](CO)O1)NCc1ccc(Oc2ccccc2)cc1
  -3[16.7 µM], 4
- COc1ccc(NC(=O)Nc2ccc3c(c2)C(=O)N([C@@H](C)CO)C[C@H](C)[C@H](CN(C)Cc2ccc4c(c2)OCO4)OCCCC[C@@H](C)O3)cc1
  1[16.7 µM], 17
- C[C@@H]1CCCCO[C@@H](CN(C)S(=O)(=O)c2ccc(Cl)cc2)[C@H](C)CN([C@@H](C)CO)C(=O)c2cc(NS(=O)(=O)c3ccc(Cl)cc3)ccc2O1
  -42[16.7 µM], -10
- C[C@H]1CN([C@@H](C)CO)C(=O)c2cc(/C=C/c3ccccc3)cnc2O[C@H]1CN(C)C(=O)C1CCCCC1
  14[16.7 µM], -3
- COCC(=O)N(C)C[C@H]1Oc2ncc(C#C[C@@H](C)O)cc2C(=O)N([C@@H](C)CO)C[C@@H]1C
  4[16.7 µM], -8
- CCCC#Cc1cnc2c(c1)C(=O)N([C@H](C)CO)C[C@@H](C)[C@H](CN(C)C(=O)NC1CCCC1)O2
  14[16.7 µM], 1
- Cc1noc(C)c1S(=O)(=O)Nc1ccc2c(c1)C(=O)N([C@H](C)CO)C[C@H](C)[C@@H](CN(C)C(=O)Nc1cccc3ccccc13)OCCCC[C@@H](C)O2
  -14[16.7 µM], -11
- C[C@@H]1CN([C@@H](C)CO)C(=O)Cc2cc(NC(=O)Cn3cnnn3)ccc2O[C@H]1CN(C)S(=O)(=O)c1cn(C)cn1
  -7[16.7 µM], -9

# Among those listed so far, 5 have a CF3 group:
# Every second line gives: HIV Env fusion, UUG fidelity
- CO[C@@H]1CN(C)C(=O)c2ccc(NC(=O)Nc3ccccc3F)cc2OC[C@@H](C)N(S(=O)(=O)CC(F)(F)F)C[C@H]1C
  12[16.7 µM], 8
- CCCNC(=O)C[C@@H]1CC[C@@H]2[C@@H](COc3ccc(NC(=O)c4cccc(C(F)(F)F)c4)cc3C(=O)N2C)O1
  -6[16.7 µM], 18
- C[C@@H]1CN([C@H](C)CO)C(=O)c2cc(NS(=O)(=O)c3cn(C)cn3)ccc2O[C@@H]1CN(C)C(=O)Nc1ccc(C(F)(F)F)cc1
  -10[16.7 µM], 2
- C[C@@H]1CCCCO[C@@H](CN(C)C(=O)CCC(F)(F)F)[C@@H](C)CN([C@@H](C)CO)C(=O)c2cc(NC(=O)Nc3ccc4c(c3)OCO4)ccc2O1
  -26[16.7 µM], -1
- Cc1noc(C)c1S(=O)(=O)Nc1ccc2c(c1)C(=O)N([C@H](C)CO)C[C@@H](C)[C@@H](CN(C)C(=O)Nc1ccc(C(F)(F)F)cc1)O2
  3[16.7 µM], -10

# The list goes on.
# Every second line gives: HIV Env fusion, UUG fidelity
- C[C@@H]1CN([C@@H](C)CO)C(=O)c2cc(-c3ccc(F)cc3)cnc2O[C@@H]1CN(C)C(=O)c1ccccc1F
  2[16.7 µM], -8
- CN(C)CC(=O)Nc1ccc2c(c1)[C@H]1C[C@@H](CC(=O)NCc3ccccc3)O[C@@H](CO)[C@H]1O2
  3[16.7 µM], -8
- O=C1O[C@H](c2ccccc2)[C@H](c2ccccc2)N2[C@H]1[C@@H](C(=O)N1CCCCCCC1)[C@]1(C(=O)Nc3ccc(C#CC4=CCCCC4)cc31)[C@H]2c1ccc(O)cc1
  13[16.7 µM], 7
- COCC#Cc1cnc2c(c1)C(=O)N([C@@H](C)CO)C[C@@H](C)[C@H](CN(C)C(=O)CN1CCOCC1)O2
  -3[16.7 µM], 0
- COc1ccc(S(=O)(=O)Nc2ccc3c(c2)C(=O)N([C@H](C)CO)C[C@@H](C)[C@H](CN(C)S(=O)(=O)c2ccc(Cl)cc2)OCCCC[C@H](C)O3)cc1
  17[16.7 µM], 1
- N#C[C@@H]1N[C@H](CO)[C@H]1c1ccccc1
  19[16.7 µM], 3
- COc1ccc(S(=O)(=O)Nc2ccc3c(c2)CC(=O)N([C@@H](C)CO)C[C@H](C)[C@H](CN(C)S(=O)(=O)c2ccc(OC)cc2)O3)cc1
  -16[16.7 µM], -12
- C[C@H]1CCCCO[C@@H](CN(C)Cc2ccc3c(c2)OCO3)[C@@H](C)CN([C@@H](C)CO)C(=O)c2cc(N(C)C)ccc2O1
  45[16.7 µM], 7
- Cc1ccc(-c2cnc3c(c2)C(=O)N([C@H](C)CO)C[C@@H](C)[C@@H](CN(C)C)O3)cc1
  3[16.7 µM], -3
- C[C@@H]1CN([C@H](C)CO)C(=O)c2cc(C#CC3CCCCC3)cnc2O[C@H]1CN(C)C
  15[16.7 µM], 2
- COc1ccc(CN(C)C[C@@H]2Oc3ccc(NC(=O)Nc4ccccc4)cc3C(=O)N([C@@H](C)CO)C[C@@H]2C)cc1
  -2[16.7 µM], 4
- CCC(=O)Nc1ccc2c(c1)C(=O)N(C)[C@@H]1CC[C@@H](CC(=O)NCC3CC3)O[C@@H]1CO2
  -17[16.7 µM], 5
- COc1ccc(NC(=O)N(C)C[C@H]2Oc3ncc(-c4ccc(C#N)cc4)cc3C(=O)N([C@H](C)CO)C[C@H]2C)cc1
  -14[16.7 µM], 14
- C#CCN(CC=C(C)C)[C@H](CO)c1ccccc1
  -16[16.7 µM], -14
- C[C@H](CO)N1C[C@H](C)[C@H](CN(C)C(=O)Nc2ccc(C(F)(F)F)cc2)Oc2ccc(NS(=O)(=O)c3ccc(F)cc3)cc2CC1=O
  -10[16.7 µM], 9
- CCC(=O)N[C@H]1C=C[C@H](CC(=O)NCc2ccc(OC)cc2)O[C@@H]1CO
  -2[16.7 µM], -8
- C[C@H](CO)N1C[C@H](C)[C@@H](CN(C)C(=O)Nc2ccc3c(c2)OCO3)OCCCC[C@H](C)Oc2ccc(NS(=O)(=O)c3cccs3)cc2C1=O
  -122[16.7 µM], 3
- O=C(Nc1ccc(Cl)c(Cl)c1)N[C@H]1CC[C@H](CCn2cc(C3CC3)nn2)O[C@@H]1CO
  -6[16.7 µM], 14
- C[C@H]1CN([C@@H](C)CO)C(=O)c2cc(-c3ccc(C(=O)N(C)C)cc3)cnc2O[C@@H]1CN(C)C(=O)c1cccnc1
  3[16.7 µM], -4
- C[C@H](CO)N1C[C@H](C)[C@@H](CN(C)C(=O)CN(C)C)Oc2cc(C#CCC3CCCC3)ccc2S1(=O)=O
  25[16.7 µM], 7
- Cc1ccc(S(=O)(=O)N[C@H]2CC[C@H](CCn3cc(C4CCCCC4)nn3)O[C@H]2CO)cc1
  13[16.7 µM], -12
- C[C@@H]1CN([C@H](C)CO)C(=O)c2cccc(NC(=O)NC3CCCCC3)c2O[C@H]1CN(C)CC1CCCCC1
  34[16.7 µM], 0
- C[C@H](CO)N1C[C@H](C)[C@H](CN(C)C(=O)Nc2ccc3c(c2)OCO3)Oc2ncc(C#Cc3ccc(F)cc3)cc2C1=O
  14[16.7 µM], -1
- CC(C)NC(=O)N(C)C[C@H]1OCCCC[C@@H](C)Oc2ccc(NC(=O)NC3CCCCC3)cc2C(=O)N([C@H](C)CO)C[C@@H]1C
  -3[16.7 µM], -11
- C[C@@H]1CN([C@H](C)CO)C(=O)c2cc(C3=CCCCC3)cnc2O[C@@H]1CN(C)Cc1ccc(C(=O)O)cc1
  8[16.7 µM], 0
- C[C@@H]1CCCCO[C@@H](CN(C)Cc2ccccc2)[C@@H](C)CN([C@H](C)CO)C(=O)c2cc(NC(=O)Nc3ccc(C(F)(F)F)cc3)ccc2O1
  22[16.7 µM], -10
- Cc1ccc(S(=O)(=O)Nc2ccc3c(c2)C(=O)N([C@H](C)CO)C[C@@H](C)[C@H](CN(C)Cc2ccc(C(=O)O)cc2)O3)cc1
  -1[16.7 µM], 1
- O=C(N[C@H]1CC[C@H](CCNS(=O)(=O)c2ccccc2)O[C@@H]1CO)c1cnccn1
  -15[16.7 µM], -8
- C[C@@H]1CN([C@@H](C)CO)C(=O)c2cc(NC(=O)Nc3cccc4ccccc34)ccc2O[C@@H](C)CCCCO[C@H]1CN(C)C(=O)Nc1ccccc1
  8[16.7 µM], -10
- CNC(=O)C1=C[C@H](c2ccc(C(=O)OC)cc2)C[C@H](OCCCCO)O1
  -12[16.7 µM], -17
- O=C(C[C@H]1CC[C@H](NC(=O)c2ccc(F)cc2)[C@@H](CO)O1)NCCc1ccncc1
  17[16.7 µM], 5
- C[C@@H]1CCCCO[C@@H](CN(C)C(=O)Nc2ccc(C(F)(F)F)cc2)[C@@H](C)CN([C@H](C)CO)C(=O)c2cc(NC(=O)c3ccccc3)ccc2O1
  10[16.7 µM], -16
- C[C@@H]1CN([C@H](C)CO)C(=O)c2cc(NS(=O)(=O)c3cn(C)cn3)ccc2O[C@@H](C)CCCCO[C@@H]1CN(C)C(=O)NC1CCCCC1
  32[16.7 µM], 1
- C[C@H](CO)N1C[C@H](C)[C@@H](CN(C)C(=O)c2cccnc2)Oc2cc(C#CC3CC3)ccc2S1(=O)=O
  -16[16.7 µM], 65
- C[C@@H]1CN([C@@H](C)CO)S(=O)(=O)c2ccc(-c3cccc(C(=O)N(C)C)c3)cc2O[C@@H]1CN(C)C(=O)Nc1ccc(F)cc1
  -50[16.7 µM], 10
- CNC[C@@H]1Oc2ncc(-c3ccc(F)cc3)cc2C(=O)N([C@H](C)CO)C[C@@H]1C
  8[16.7 µM], 13
- C[C@H](CO)N1C[C@H](C)[C@H](CN(C)CC2CC2)Oc2c(NC(=O)C3CCOCC3)cccc2C1=O
  -11[16.7 µM], -9

# Given with each value named: entries from further up.
C[C@@H]1CN([C@H](C)CO)C(=O)c2cccc(NC(=O)NC3CCCCC3)c2O[C@H]1CN(C)CC1CCCCC1
  HIV Env fusion = 34[16.7 µM]	UUG fidelity = 0
O=C(C[C@H]1C[C@H]2c3cc(NC(=O)NC4CCCC4)ccc3O[C@H]2[C@@H](CO)O1)NCc1ccc(Oc2ccccc2)cc1
  HIV Env fusion = -3[16.7 µM]	UUG fidelity = 4
